# Mtb MbtI inh – inhibitors of Mycobacterium tuberculosis siderophore enzyme MbtI; purified MbtI enzyme, fluorescence intensity read-out; inhibition, %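 (about 17 µg/mL by stock and volumes)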; hit rate 0.89% among 100,000;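 active = above 50% in both replicates, above 80% if mildly self-fluorescent; inactive = the rest, strongly fluorescent compounds included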;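 also: 0% = mean of negative and 100% = mean of positive controls; one replicate is shown; some compounds called inactive have numbers as strong as hits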
# Target sequence (P9WFX0 whole entry, looked up): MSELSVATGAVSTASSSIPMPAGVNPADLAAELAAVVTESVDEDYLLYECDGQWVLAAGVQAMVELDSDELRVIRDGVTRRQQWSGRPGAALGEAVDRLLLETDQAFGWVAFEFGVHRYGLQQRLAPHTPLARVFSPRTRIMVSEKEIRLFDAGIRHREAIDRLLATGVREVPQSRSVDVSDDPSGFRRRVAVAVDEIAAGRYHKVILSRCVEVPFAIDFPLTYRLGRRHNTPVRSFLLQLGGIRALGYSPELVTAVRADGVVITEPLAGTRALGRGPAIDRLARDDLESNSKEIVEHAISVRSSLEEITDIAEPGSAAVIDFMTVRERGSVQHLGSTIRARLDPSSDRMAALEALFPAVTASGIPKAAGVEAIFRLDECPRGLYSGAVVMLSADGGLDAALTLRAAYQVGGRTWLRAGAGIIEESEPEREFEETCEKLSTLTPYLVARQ
# The depositor's hits bear a star.
SMILES,Mtb MbtI inh
OC(Cc1nc2ccccc2[nH]1)c1ccccc1Cl (stereo unspecified),-6.3
CCCc1nn2c(=O)cc(O)nc2s1,-11.5
CCCCc1nc2n[nH]c(N)c2c2c1CCCC2,-19.9
COc1cccc(NC(=O)CC2OCCN(Cc3ccccc3)C2=O)c1 (stereo unspecified),7.2
O=C1CC(c2cccs2)Cc2nc(NCCN3CCOCC3)ncc21 (stereo unspecified),-4.4
CC1(C)Cc2c(nn(-c3ccccc3)c(=O)c2C#N)CO1,-3.2
CCSc1nncc(-c2ccccc2)n1,16.8
CC(=O)Nc1ccc2c(c1)ncn2-c1ccccc1,-7.3
O=C(Nc1ccc2c(c1)OC1(CCCC1)O2)C1CC1,-1.5
COc1cc2c3c(c1OC)C1(C=CC(=O)C=C1)CC3N(C(=O)CCC(=O)O)CC2 (stereo unspecified),-13.9
CN1CCN(c2nc(N3CCN(c4ccccc4)CC3)ncc2F)CC1,-1.4
Cc1ccccc1Nc1cccc2nonc12,21.8
CCC(C)(C(=O)NC1CCCC1)N(C)C(=O)c1ccc2c(c1)OCO2 (stereo unspecified),-2.9
CCOC(=O)C1CCCN(CCCc2ccccc2)C1 (stereo unspecified),-2.5
C=C(C)C(C)(O)C#CCN1CCCC1 (stereo unspecified),0.0
CCCc1nc(N2CCCC2)c(C#N)c2c1CCCC2,16.5
CCCn1c(=NC(=O)C(CC)c2ccccc2)c(C(=O)OCC)cc2c(=O)n3ccccc3nc21 (stereo unspecified),66.6
OC1C2CCCC1C(N1CCCC1)CC2 (stereo unspecified),-11.3
CCOC(=O)N1CCC(NCc2ccco2)CC1,-11.3
NC1c2ccccc2CCC1Cc1ccco1 (stereo unspecified),-2.1
Cc1ccccc1OCC(=O)NC(C)c1ccccc1 (stereo unspecified),-4.2
COc1ccc(C(=O)N2CCSC2=S)cc1OC,-6.6
Cc1ccc(N2CCSC2c2ccco2)cc1 (stereo unspecified),-6.3
Oc1ccc(Cn2cnc3ccccc32)c2cccnc12,-13.5
CCN(CC)c1nc2c(s1)C(=O)CC(C)(C)C2,5.8
CN(C)S(=O)(=O)c1ccc(C(=O)Nc2ccc(OCC(=O)N3CCOCC3)cc2)cc1,-11.1
CCOc1cccc(CNCC2NCCc3ccccc32)c1O (stereo unspecified),-15.4
Nc1cccc2c(-c3ccccc3)ccnc12,1.3
COC(=O)c1c(F)c(F)c(Oc2ccc(NC(C)=O)cc2)c(F)c1N1CCCCC1,-8.2
CNc1nn(-c2cccc(Cl)c2)nc1N,-6.2
CC(NC(=O)COc1cccc(Cl)c1)c1ccccc1 (stereo unspecified),-2.8
CCSc1nc2c(c(=O)n1CC)SC(C)C2 (stereo unspecified),-8.1
COc1ccc(NC(=O)CC2=C(c3ccccc3)CCC2=O)cc1,-15.7
Cc1ccc(N2Cc3ccccc3OC(C)C2=O)cc1 (stereo unspecified),-13.1
COC(=O)CSc1cc2c3c(c(C(=O)OC)sc3c1)NC(=O)CS2,-5.4
CC(C)(C)n1ncc(Cl)c(Cl)c1=O,-2.4
Cc1ccc2c(c1)c1cccc3c1n2CCN3CCC#N,10.7
COC(=O)C(O)C(Sc1ccccc1N)c1ccccc1 (stereo unspecified),-0.8
Cc1c(C(=O)N(C)C)sc2nc(SCC(=O)NCc3ccco3)n(CCc3ccccc3)c(=O)c12,-11.4
O=C(NC1(C(=O)Nc2ccccc2)CCCCC1)c1ccc(-n2cnnn2)cc1,-18.0
CC(=O)N(C(C)=O)c1cc(C(=O)O)ccc1Sc1ccc(Br)cc1,-8.4
COC(=O)c1ccc(COc2ccc(-c3nnn(CC(=O)NC(C)(C)C)n3)cc2)cc1,4.2
CC1CCCCN1c1nnc(NC(=O)c2csc3c2CCCC3)s1 (stereo unspecified),-12.2
Cc1ccccc1OC1C(=O)N(CC2CCCO2)C1c1ccc2c(c1)OCO2 (stereo unspecified),-15.9
O=C(NCc1ccco1)c1ccc2c(c1)C(=O)N(Cc1ccco1)C2=O,-3.0
Nc1cccc(-c2nnc(-c3ccco3)o2)c1,-176.3
COc1ccc(N2C(=O)CCC(C(=O)N3CCN(c4ccccc4)CC3)C2c2ccc(F)cc2)cc1 (stereo unspecified),-4.9
COc1ccc(C(=O)Oc2ccc3c(C)cc(=O)oc3c2)cc1OC,-15.5
O=C(Oc1cccc2cccnc12)c1ccccc1F,-8.5
Cc1ccc(Cn2c(SCC(O)CO)nc3c2c(=O)[nH]c(=O)n3C)cc1 (stereo unspecified),29.6
COc1ccc(C(=O)N[C@H]2COC(C)(C)O[C@H]2c2ccccc2)cc1,-9.8
CC(C)COC(=O)c1ccc(O)cc1,2.4
O=C(CC(c1ccc(F)cc1)c1ccco1)N1CCCCC1 (stereo unspecified),-11.1
CC1CC(C)(C)NC(=S)N1CCC(=O)N1CCc2ccccc2C1 (stereo unspecified),12.9
Nc1nc2ccc(S(=O)(=O)c3ccc4nc(N)sc4c3)cc2s1,5.9
OC(COc1ccc(OCC(O)CN2CCCC2)cc1)CN1CCCC1 (stereo unspecified),-9.9
Cc1cc(S(=O)(=O)NCc2ccc(S(N)(=O)=O)cc2)c(C)s1,-11.9
FC(F)(F)c1cc(-c2ccccc2)nc(NC2CCCC2)n1,82.5
CC(C)(C)c1ccc(CCC(CC(=O)O)CC(=O)O)cc1,-6.1
O=S(=O)(Cc1ccccc1Cl)N1CCCCC1,-10.6

# (more compounds)
SMILES,Mtb MbtI inh
COc1ccc2[nH]c(=O)cc(O)c2c1,-12.9
Oc1ccccc1CNc1ccccc1Br,-13.6
O=C(Nc1ccc(Cl)c(Cl)c1)c1c(O)c2ccccc2[nH]c1=O,19.2
CC(CCO)Nc1nc2c(c(=O)n(C)c(=O)n2C)n1Cc1ccccc1Br (stereo unspecified),-6.1
CCN(CC)C(=O)Cn1c(=O)n(-c2ccccc2)c(=O)n1CC(=O)N(CC)CC,-6.2
Cc1ccc(S(=O)(=O)NCC(=O)NC2CCCC2)cc1,3.0
Cn1c(-c2ccc(N)cc2)nc2cc(N)ccc21,87.1
c1ccc(C2COC(c3cccs3)=N2)cc1 (stereo unspecified),2.1
C=CCn1c(-c2ccc(OC)c(OC)c2)cs/c1=N\c1ccccn1,-3.7
O=C1CCCC2=C1C(c1cccnc1)c1c(ccc3ncccc13)N2 (stereo unspecified),-29.4
O=C(Oc1cc(=O)oc2ccccc12)c1ccco1,8.7
CN(C(=O)c1cccc(N)c1)c1ccccc1,-7.4
CCc1nc2nonc2c2nc3ccccc3n12,7.7
c1ccc(CCNCc2ccc3c(c2)OCO3)cc1,-11.9
O=C(NCc1ccccc1)c1cc(=O)nc2sc(-c3ccccc3)nn12,-7.2
CSc1n[nH]c(NCc2cccs2)n1,-9.6
CCOC(=O)c1cc(O)c(C(=O)OCC)cc1O,-29.2
O=C(O)CNc1nnc(-n2cccc2)s1,5.4
Cc1nc2cc(-c3ccccc3)nn2c(C)c1CC(=O)O,-31.9
O=C(CC(C(=O)O)C1CCCO1)NCc1ccccc1 (stereo unspecified),-11.6
Cc1ccc(Nc2ncc(C(=O)N3CCCCCC3)c3ccccc23)cc1Cl,-36.7
CC(C)(C)Sc1ccc(C(=O)O)s1,57.4*
O=C(O)c1cccc(-n2cccc2C=NO)c1,-8.8
Cn1c(C(=O)O)c(CC(=O)NCc2cccnc2)c2ccccc21,6.1

# Reformatted: entries from further up.
molecule	Mtb MbtI inh
O=C1CC(c2cccs2)Cc2nc(NCCN3CCOCC3)ncc21 (stereo unspecified)	-4.4
CC1(C)Cc2c(nn(-c3ccccc3)c(=O)c2C#N)CO1	-3.2
CCSc1nncc(-c2ccccc2)n1	16.8
CC(=O)Nc1ccc2c(c1)ncn2-c1ccccc1	-7.3
O=C(Nc1ccc2c(c1)OC1(CCCC1)O2)C1CC1	-1.5
COc1cc2c3c(c1OC)C1(C=CC(=O)C=C1)CC3N(C(=O)CCC(=O)O)CC2 (stereo unspecified)	-13.9
CN1CCN(c2nc(N3CCN(c4ccccc4)CC3)ncc2F)CC1	-1.4
Cc1ccccc1Nc1cccc2nonc12	21.8
CCC(C)(C(=O)NC1CCCC1)N(C)C(=O)c1ccc2c(c1)OCO2 (stereo unspecified)	-2.9
CCOC(=O)C1CCCN(CCCc2ccccc2)C1 (stereo unspecified)	-2.5
C=C(C)C(C)(O)C#CCN1CCCC1 (stereo unspecified)	0.0

# (list continues)
SMILES,Mtb MbtI inh
O=C(Cc1ccccc1)Nc1c[nH]c(=O)[nH]c1=O,-14.4
O=C1c2ccccc2C(=O)N1CSc1nc2ccccc2[nH]1,27.1
N=c1n(CCO)c2ccccc2n1CCOc1ccccc1,-5.2
COC(=O)CCC1CCCCC12OCCO2 (stereo unspecified),0.1
COc1ccc(C(=O)CCC(=O)Nc2ccccc2F)cc1,-5.0
O=C(O)C1(c2ccccc2)CCCC1,-8.0
CCOC(=O)C1C(C)=NC(=O)NC1/C=C/c1ccccc1 (stereo unspecified),0.9
O=C(NC(c1ccccc1Cl)c1ccc2cccnc2c1O)c1ccccc1 (stereo unspecified),-11.2
O=C(NCC(=O)N1CCC(N2CCCCC2)CC1)C1CCCCC1,-14.4
CCOC(=O)Cc1ccc(NCc2ccc(Cl)cc2)cc1,-14.8
CC(C)Nc1nc(NC(C)C)nc(N(C)C#N)n1,-2.9
O=C(Cn1cc(C=NO)c2ccccc21)N1CCOCC1,5.0
O=C(Nc1ccccc1)OC1CN2CCC1CC2 (stereo unspecified),-0.2
O=C(O)CCC1CC(=O)Nc2ccccc21 (stereo unspecified),-8.3
CC(=O)n1cc(Nc2ccccc2O)c2ccccc21,9.2
O=C(Cc1cccs1)Nc1ccc2c(c1)C(=O)OC2,0.7
Nc1c(Nc2ccc(C(=O)O)cc2)c2ccccc2oc1=O,14.6
O=c1[nH]nc(-c2ccccc2)c2c1-n1nnnc1NC2c1ccccc1 (stereo unspecified),-63.0
Cc1ccccc1Nc1cc2ccccc2c(=O)[nH]1,6.7
NC(=O)c1cc2cc(F)ccc2[nH]1,94.8
CNc1sc2c(O)cc(=O)[nH]c2c1C#N,-2.3
O=c1cccc(-c2ccc(Br)cc2)o1,4.0
O=C1CC(Cc2ccccc2)(c2ccccc2)C(=O)N1 (stereo unspecified),-16.8
Cc1ccc(NS(=O)(=O)Cc2ccccc2)nc1,127.0
COc1ccc(C2Nc3nc4ccccc4n3C(C)=C2C(=O)Nc2ccccc2)cc1 (stereo unspecified),-5.3
CC(=O)N1c2ccccc2NC(=O)C1(C)C,-4.3
Cc1ccnc(NCc2ccc(Cl)cc2)c1,-8.9
CCN(C(=O)Cn1c(=O)oc2ccccc21)c1cccc(C(F)(F)F)c1,2.1
Cc1nc2nc(C)n(-c3ccccc3)c2s1,-4.8
CC(=O)OCCc1c(COC(C)=O)[nH]c(C(=O)OCc2ccccc2)c1C,-4.8
CN1CCN(CCCNC(=O)c2sc3ccccc3c2Cl)CC1,-13.1
CCOC(=O)C1CCN(C(=O)C(CC)c2ccccc2)CC1 (stereo unspecified),-5.9
COC(=O)CCS(=O)(=O)c1nc(-c2cccs2)cc(C(F)(F)F)n1,105.0
CCOC(=O)c1ccc(NCc2ccccc2O)cc1,-49.9
O=C(CC(=O)Nc1ccccc1)Nc1ccccc1,-1.9
COc1ccc(CN2CCN(C(=O)CC(C)C)CC2)cc1,-9.6
O=c1c(Cl)c(Nc2cccc(Cl)c2)cnn1-c1nc2ccccc2s1,-2.8
Cc1ccc2c(c1)c1c(n2CCC#N)CCN(C)C1,-9.3
COc1cc(CO)cc(-c2cc(CO)cc(OC)c2OC)c1OC,3.3
O=C(c1ccco1)N(C(=O)c1ccco1)c1c(Cl)cc(Cl)c2cccnc12,-7.2
CCC(C)NC(=O)c1ccccc1-c1nc2ccccc2[nH]1 (stereo unspecified),2.8
CCc1nnc(NC(=O)c2ccc(S(=O)(=O)N(C)c3ccccc3)cc2)o1,-0.9
COc1ccc(C(NC(=O)CCCN2C(=O)c3ccccc3C2=O)c2ccccc2)cc1 (stereo unspecified),-6.3
CC1(C)C(C#N)=C(SCC(N)=O)NC(=O)C1C#N (stereo unspecified),-47.4
Cc1ccc(OC(=O)C(CCS(C)(=O)=O)N2C(=O)c3ccccc3C2=O)c(-n2nc3ccccc3n2)c1 (stereo unspecified),-6.6
Nc1nnc(N2CCc3ccccc32)s1,6.7
Cc1ccc(Nc2nc(C3CC3)cs2)cc1,27.6
CCCN(CCC)C(=O)CC(c1ccccc1)C1CCOC(C)(C)C1 (stereo unspecified),-0.7
O=C(NCC1CCCO1)c1ccc(COc2ccc(F)cc2)o1 (stereo unspecified),8.0
COC(=O)C(C)Oc1cc2oc(=O)c3c(c2cc1Cl)CCCC3 (stereo unspecified),-31.5
O=C(O)c1ccc2c(c1)ncn2-c1ccc(Br)cc1,-9.0
CCCOC(=O)COc1ccc2c3c(c(=O)oc2c1)CCC3,-45.4
CCCCC(=O)Nc1c2c(nn1C(C)(C)C)CS(=O)C2 (stereo unspecified),-0.8
CCOC(=O)c1cn(-c2nonc2N)nn1,5.8
Nc1nc(SCc2ccc(Cl)cc2Cl)ns1,-6.6
CC1(C)CC(=O)C(CC(=O)Nc2ccc(S(N)(=O)=O)cc2)=C(O)C1,-8.9
CCc1ccc2nc(N3CCC(C(=O)NCCc4ccccc4)CC3)sc2c1,-6.9
O=C(Nc1ccc(Cl)cc1Cl)C1C2C3CCC(C3)C12 (stereo unspecified),-8.8
N=C(N)SCC1CN=C(Nc2ccccc2)S1 (stereo unspecified),0.1
CSc1nc2c(ccc3ccccc32)o1,56.8

# New compounds follow.
SMILES,Mtb MbtI inh
CC1=NOC(c2ccccc2O)N(C)C1(C)C (stereo unspecified),-3.4
O=C(O)COc1cccc(NC(=O)c2ccccc2)c1,0.3
CCOC(=O)CN1CCOc2ccccc21,-3.9
COc1ccc(CCNC(=O)CSc2cc(Cl)nc3ccc(C)cc23)cc1OC,2.4
COc1ccc(C(CC(=O)O)CC(=O)O)cc1,-30.4
Cc1nc2cc(-c3ccccc3)nn2c(C)c1CCC(=O)O,-51.2
c1ccc(CNc2ccncc2)cc1,-7.9
CC(=O)N1C(=O)c2cccc3cccc1c23,79.3
Cn1ncc(Br)c1C(=O)Oc1ccccc1Cl,-1.9
CC(C)(C)C1CC=C2C(C#N)=C(N)C(C#N)(C#N)C(CCc3ccccc3)C2C1 (stereo unspecified),-22.9
O=S(=O)(c1ccc(C2CCCCC2)cc1)N1CCc2ccccc21,10.2

# Screening data from PubChem.

# The list is partial. The share of hits here may be higher or lower than overall.
